High-throughput results (PubChem BioAssay)
Vaccinia stage = blocks a specific stage of Vaccinia orthopoxvirus infection, primary screen, cell-based, single point; activity change (mCherry), % (no concentration beside the values); Vaccinia-infected cells, mCherry/Venus stage reporter fluorescence; stronger effect = lower value; some inactives read as strong as hits; 89,000 tested, 0.01% active;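 active = mCherry past -33% and 40 or more points under the early reporter, replicates agreeing; inconclusive = past -33% without that gap or agreement; tested in A549 cells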;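 note: scaled between vehicle wells and reference inhibitor wells; 23 nL library stock went into each well; one replicate is shown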
Vaccinia stage Venus = second read-out of Vaccinia stage, no call of its own (marks repeat the call); activity change (Venus), %; measured here: Venus reporter, other viral stage;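 negative = less Venus signal; first of two replicates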
* marks the source's active call; other numbers are inactive results; ? = inconclusive; . = not tested or not shown. These rows are one share of the data; the hit share may differ from the screen's.

SMILES | Vaccinia stage | Vaccinia stage Venus
C[C@H]1CCCCO[C@H](CN(C)S(=O)(=O)c2ccc(Cl)cc2)[C@@H](C)CN([C@@H](C)CO)C(=O)c2cc(NS(=O)(=O)c3ccccc3)ccc2O1 | ? | .
C[C@@H]1CCCCO[C@H](CN(C)C(=O)Nc2ccc(F)cc2)[C@H](C)CN([C@H](C)CO)C(=O)c2cc(NC(=O)Cc3ccccc3)ccc2O1 | -25.1 | -22.9
C[C@@H]1CN([C@@H](C)CO)C(=O)c2cc(NS(=O)(=O)c3ccc(Cl)cc3)ccc2O[C@@H](C)CCCCO[C@@H]1CN(C)Cc1ccc(C(F)(F)F)cc1 | -28.7 | -21.2
Cc1ccc(S(=O)(=O)N(C)C[C@H]2OCCCC[C@@H](C)Oc3ccc(NC(=O)NC(C)C)cc3C(=O)N([C@H](C)CO)C[C@@H]2C)cc1 | 7.6 | -0.4
C[C@@H]1CN([C@H](C)CO)C(=O)c2cc(NS(=O)(=O)c3ccc(Cl)cc3)ccc2O[C@@H]1CN(C)C(=O)Nc1cccc2ccccc12 | 9.1 | 31.3
CO[C@H](CN(C)S(=O)(=O)c1ccc(C)cc1)[C@@H](C)CN(Cc1ccccc1Cl)[C@H](C)CO | -16.9 | -10.7
C[C@@H]1CCCCO[C@H](CN(C)S(=O)(=O)c2ccc(Cl)cc2)[C@@H](C)CN([C@H](C)CO)C(=O)c2cc(NC(=O)CCC(F)(F)F)ccc2O1 | 12.6 | 0.7
CC(=O)N1CC2(C1)[C@@H](c1ccccc1)[C@@H](CO)N2CC1CCOCC1 | 9.9 | 10.1
Cc1ccccc1-c1cnc2c(c1)C(=O)N([C@@H](C)CO)C[C@H](C)[C@@H](CN(C)C(=O)c1cccnc1)O2 | 8.3 | 8.3
Cn1cnc(S(=O)(=O)N2CCCCN3[C@H](CO)[C@@H](c4ccc(-c5cccc(F)c5)cc4)[C@@H]3C2)c1 | -23.5 | -36.6
Cc1noc(C)c1NC(=O)N(C)C[C@@H]1OCCCC[C@@H](C)Oc2ccc(NC(=O)NC3CCCCC3)cc2C(=O)N([C@H](C)CO)C[C@@H]1C | 10.6 | 3.0
C[C@H](O)C#Cc1ccc2c(c1)O[C@@H](CN(C)C(=O)Nc1ccccc1)[C@H](C)CN([C@@H](C)CO)S2(=O)=O | 14.2 | 14.8
C[C@H](CO)N1C[C@H](C)[C@@H](CN(C)S(=O)(=O)c2cccs2)Oc2ccc(NC(=O)Cn3cnnn3)cc2C1=O | 45.2 | 26.4
COc1ccccc1S(=O)(=O)N[C@H]1CC[C@H](CCn2cc(C3CCCC3)nn2)O[C@H]1CO | 8.6 | 1.4
COc1cccc(C(=O)N2C[C@@H]3[C@H](c4ccccc42)[C@@H](CO)N3C(=O)c2cccc(F)c2)c1 | -3.0 | -1.9
C[C@H]1CN([C@@H](C)CO)C(=O)c2cc(NC(=O)C3CCCCC3)ccc2O[C@@H]1CN(C)S(=O)(=O)c1ccccc1 | -5.4 | -8.1
CCCC#Cc1ccc([C@@H]2[C@H]3CN(C(=O)NC4CCCC4)CC(=O)N3[C@H]2CO)cc1 | 2.1 | -10.9
COc1ccc(S(=O)(=O)Nc2ccc3c(c2)C(=O)N([C@H](C)CO)C[C@@H](C)[C@H](CN(C)Cc2ccc4c(c2)OCO4)OCCCC[C@@H](C)O3)cc1 | -26.3 | -12.6
CC(C)NC(=O)N(C)C[C@H]1Oc2c(cccc2N(C)C)C(=O)N([C@H](C)CO)C[C@@H]1C | 20.9 | 18.2
CCN1[C@H](C(=O)NCC2CC2)[C@@H](CO)[C@@H]2Cn3c(ccc(-c4ccccc4)c3=O)[C@@H]21 | 3.4 | -0.1
OC[C@H]1[C@@H](c2ccc(-c3ccccc3F)cc2)[C@H]2CN(Cc3ccncc3)CCCCN21 | -4.7 | -12.7
C[C@@H]1CN([C@H](C)CO)C(=O)Cc2cc(NC(=O)CCC(F)(F)F)ccc2O[C@@H]1CN(C)C(=O)NC1CCCCC1 | 0.8 | -3.9
O=C(C[C@@H]1CC[C@@H]2[C@H](COC[C@@H](O)CN2CC2CC2)O1)NCC1CC1 | 1.8 | 8.4
CN(C)CC#Cc1ccc([C@@H]2[C@H]3CN(C(=O)c4ccc5c(c4)OCO5)CCCCN3[C@H]2CO)cc1 | 11.8 | 1.9
COCC(=O)N(C)C[C@H]1Oc2ncc(C#Cc3ccc(OC)cc3)cc2C(=O)N([C@H](C)CO)C[C@H]1C | 15.4 | 13.8
Cc1noc(C)c1NC(=O)Nc1cccc2c1O[C@H](CN(C)S(=O)(=O)c1cn(C)cn1)[C@@H](C)CN([C@H](C)CO)C2=O | 10.0 | 3.9
C[C@@H]1CN([C@H](C)CO)S(=O)(=O)c2ccc(C#C[C@@H](C)O)cc2O[C@@H]1CN(C)Cc1ccccn1 | 26.5 | 9.4
C[C@@H]1CN([C@H](C)CO)C(=O)c2cc(NC(=O)Nc3cccc4ccccc34)ccc2O[C@@H](C)CCCCO[C@@H]1CN(C)C(=O)NC1CCCCC1 | 37.7 | 33.8
C[C@H](CO)N1C[C@H](C)[C@H](CN(C)S(=O)(=O)c2cn(C)cn2)Oc2ccc(NC(=O)CCCN(C)C)cc2CC1=O | 11.9 | 2.1
COc1cccc(C#Cc2cnc3c(c2)C(=O)N([C@H](C)CO)C[C@H](C)[C@H](CN(C)C(C)=O)O3)c1 | -8.4 | -3.0
C[C@@H]1CN([C@H](C)CO)C(=O)CCCn2cc(nn2)CO[C@@H]1CN(C)Cc1ccc2c(c1)OCCN2C | -1.8 | -0.3
O=C(C[C@@H]1C[C@H]2c3cc(NC(=O)NC4CCCC4)ccc3O[C@H]2[C@H](CO)O1)NC1CCCC1 | 7.1 | 2.3
O=C(C[C@@H]1C=C[C@H](NC(=O)Nc2cc(F)ccc2F)[C@H](CO)O1)NCc1ccc2c(c1)OCO2 | -6.5 | -7.5
CNC[C@@H]1Oc2ccc(NS(=O)(=O)c3cccs3)cc2CC(=O)N([C@@H](C)CO)C[C@@H]1C | -12.5 | 13.4
C[C@H](CO)N1C[C@H](C)[C@@H](CN(C)C(=O)CCCN(C)C)OCCCC[C@H](C)Oc2ccc(NC(=O)Cc3ccccc3)cc2C1=O | 29.5 | 10.6
C[C@@H]1CN([C@@H](C)CO)C(=O)c2cc(C#Cc3ccc(F)cc3)cnc2O[C@@H]1CN(C)C | -23.4 | -23.5
O=C(Nc1ccccc1F)N[C@H]1CC[C@H](CC(=O)N2CCCCC2)O[C@H]1CO | -3.8 | 7.9
Cc1ccccc1-c1cnc2c(c1)C(=O)N([C@@H](C)CO)C[C@H](C)[C@@H](CN(C)CC1CCOCC1)O2 | -0.1 | -3.0
Cc1ccc(S(=O)(=O)N(C)C[C@H]2Oc3ccc(NS(=O)(=O)c4ccc(Cl)cc4)cc3CC(=O)N([C@H](C)CO)C[C@H]2C)cc1 | -34.6 | -26.6
O=C(C[C@H]1C[C@@H]2c3cc(NC(=O)C4CCC4)ccc3O[C@@H]2[C@H](CO)O1)NCC(F)(F)F | 10.3 | 3.7
COc1ccccc1-c1ccc2c(c1)O[C@@H](CN(C)CC1CCOCC1)[C@@H](C)CN([C@H](C)CO)S2(=O)=O | -11.5 | -9.6
C[C@@H]1CN([C@@H](C)CO)C(=O)c2cc(-c3ccc(C#N)cc3)cnc2O[C@H]1CN(C)C(=O)Nc1ccc(F)cc1 | 11.1 | 6.3
CO[C@H]1CN(C)C(=O)c2cc(NC(C)=O)ccc2OC[C@H](C)N(CCc2ccccc2)C[C@H]1C | 9.7 | 2.7
CN1C[C@H](O)COC[C@H]2O[C@H](CC(=O)NC3CCCC3)CC[C@@H]21 | 3.1 | 7.7
O=C(C[C@H]1CC[C@@H](NC(=O)c2ccccc2)[C@@H](CO)O1)NCc1ccncn1 | 4.9 | 6.4
COCC(=O)Nc1ccc2c(c1)[C@@H]1C[C@@H](CC(=O)O)O[C@H](CO)[C@@H]1O2 | 6.8 | 3.1
CN(C)Cc1cn(CC[C@@H]2CC[C@@H](NC(=O)Nc3ccc4c(c3)OCO4)[C@@H](CO)O2)nn1 | -4.0 | -8.5
O=C(C[C@H]1CC[C@@H]2NC[C@H](O)COC[C@H]2O1)Nc1ccccc1 | 5.9 | 2.1
O=C(C[C@H]1C=C[C@H](NC(=O)C2CCC2)[C@H](CO)O1)NC1CCCCC1 | 6.0 | 13.0
C[C@H](CO)N1C[C@H](C)[C@@H](CN(C)Cc2ccccc2)OCCCC[C@H](C)Oc2ccc(NS(=O)(=O)c3ccccc3)cc2C1=O | -34.1 | -28.8
Cc1ccc(S(=O)(=O)Nc2ccc3c(c2)C(=O)N(C)[C@@H]2CC[C@@H](CC(=O)NCCc4ccncc4)O[C@H]2CO3)cc1 | 9.3 | 12.3
C[C@H](CO)N1C[C@H](C)[C@H](CN(C)Cc2ccc(C(=O)Nc3ccccc3N)cc2)Oc2ccc(NC(=O)Cc3ccccc3)cc2C1=O | -9.0 | -2.3
O=C(C[C@H]1C=C[C@@H](NC(=O)Nc2cc(F)ccc2F)[C@H](CO)O1)NCc1ccc2c(c1)OCO2 | 3.0 | 3.8
C[C@H](CO)N1C[C@H](C)[C@@H](CN(C)C(=O)Nc2ccc3c(c2)OCO3)Oc2c(NC(=O)CCCCCC(=O)Nc3ccccc3N)cccc2C1=O | 16.8 | 9.2
O=C(C[C@@H]1CC[C@@H](NC(=O)c2ccncc2)[C@@H](CO)O1)NCC1CC1 | 6.9 | 3.3
C[C@@H]1CN([C@H](C)CO)C(=O)c2cccc(NC(=O)c3cnccn3)c2O[C@@H]1CN(C)S(=O)(=O)c1cn(C)cn1 | 10.1 | 1.3
C[C@H](CO)N1C[C@H](C)[C@H](CN(C)Cc2cccc3c2OCCCO3)OCc2cn(nn2)CCCC1=O | 11.8 | 13.4
O=C(NCc1nc2ccccc2[nH]1)C1=C[C@H](c2ccccc2)C[C@H](OCCCCO)O1 | 28.0 | 4.1
CO[C@@H]1CC[C@@H]2CCOc3ccc(C#N)cc3C(=O)N(C)C[C@H](c3ccccc3)CC(=O)N(C)C[C@H]1O2 | 8.4 | -4.1
COc1cccc(CNC(=O)C[C@H]2C=C[C@@H](NC(=O)C3CCOCC3)[C@@H](CO)O2)c1 | 7.0 | 5.0

Copied from the results shown, 7 compounds:
SMILES | Vaccinia stage | Vaccinia stage Venus
COCC(=O)Nc1ccc2c(c1)[C@@H]1C[C@@H](CC(=O)O)O[C@H](CO)[C@@H]1O2 | 6.8 | 3.1
CN(C)Cc1cn(CC[C@@H]2CC[C@@H](NC(=O)Nc3ccc4c(c3)OCO4)[C@@H](CO)O2)nn1 | -4.0 | -8.5
O=C(C[C@H]1CC[C@@H]2NC[C@H](O)COC[C@H]2O1)Nc1ccccc1 | 5.9 | 2.1
O=C(C[C@H]1C=C[C@H](NC(=O)C2CCC2)[C@H](CO)O1)NC1CCCCC1 | 6.0 | 13.0
C[C@H](CO)N1C[C@H](C)[C@@H](CN(C)Cc2ccccc2)OCCCC[C@H](C)Oc2ccc(NS(=O)(=O)c3ccccc3)cc2C1=O | -34.1 | -28.8
Cc1ccc(S(=O)(=O)Nc2ccc3c(c2)C(=O)N(C)[C@@H]2CC[C@@H](CC(=O)NCCc4ccncc4)O[C@H]2CO3)cc1 | 9.3 | 12.3
C[C@H](CO)N1C[C@H](C)[C@H](CN(C)Cc2ccc(C(=O)Nc3ccccc3N)cc2)Oc2ccc(NC(=O)Cc3ccccc3)cc2C1=O | -9.0 | -2.3

Further results:
SMILES | Vaccinia stage | Vaccinia stage Venus
COc1cccc(S(=O)(=O)Nc2ccc3c(c2)C(=O)N(C)[C@@H]2CC[C@H](CC(=O)NCC4CCCCC4)O[C@@H]2CO3)c1 | -26.9 | -18.4
O=C(NC[C@H]1CC[C@H]2[C@H](CN2C(=O)NC2CCCC2)O1)c1ccc2c(c1)OCO2 | 11.0 | 5.7
C[C@H](O)C#Cc1cnc2c(c1)C(=O)N([C@@H](C)CO)C[C@H](C)[C@H](CN(C)C(=O)CN1CCOCC1)O2 | -2.1 | -2.1
C[C@@H]1CN([C@H](C)CO)C(=O)Cc2cc(NS(=O)(=O)c3cccs3)ccc2O[C@@H]1CN(C)C(=O)Nc1ccc(C(F)(F)F)cc1 | 9.9 | 6.9
CCC(=O)N1[C@@H](CO)[C@@H]2c3ccccc3N(C(=O)c3ccc4c(c3)OCO4)C[C@@H]21 | 4.1 | 15.6
O=C(N[C@@H]1CC[C@@H](CC(=O)N2CCCCC2)O[C@H]1CO)c1ccc2c(c1)OCO2 | -4.4 | -5.4
CO[C@H]1CN(C)C(=O)c2cc(NS(C)(=O)=O)ccc2OC[C@@H](C)N(C(=O)C2CCC2)C[C@@H]1C | 1.7 | 3.9
C[C@@H]1CN([C@H](C)CO)C(=O)c2cc(-c3cccc(C(=O)N(C)C)c3)cnc2O[C@H]1CN(C)S(=O)(=O)c1cccc(F)c1 | 3.8 | 10.4
COc1ccc(NC(=O)Nc2ccc3c(c2)C(=O)N([C@H](C)CO)C[C@H](C)[C@@H](CN(C)Cc2ccc4c(c2)OCO4)OCCCC[C@H](C)O3)cc1 | ? | .
COc1ccc2c3c(n(C)c2c1)[C@H](CO)NCC31CN(CC2CC2)C1 | -3.5 | -10.3
COc1cccc(-c2ccc(C3[C@@H]4CN(C(=O)C5CCCCC5)C[C@H]3N4)cc2)c1 (stereo not given in full) | ? | 3.3
CCCC#Cc1cnc2c(c1)C(=O)N([C@H](C)CO)C[C@@H](C)[C@H](CN(C)S(=O)(=O)c1ccccc1)O2 | 2.9 | -1.2
CO[C@@H]1CN(C)C(=O)c2ccc(NS(=O)(=O)c3cn(C)cn3)cc2OC[C@H](C)N(Cc2cccc(F)c2)C[C@H]1C | -3.6 | -11.2
